Bioassay records from PubChem BioAssay.
HCMV UL50-53 inh: inhibitors of HCMV UL50-UL53 nuclear egress complex interaction | inhibition, % (concentration not given with the values) | HTRF UL50-UL53 interaction, normalized percent inhibition | hit rate 0.15% among 190,000;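 active = both replicates at 50% or more, plus weaker picks with an unusually low signal ratio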;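 also: stock transfer was 100 nL into about 20 µL; 0% = negative control wells and 100% = wells with untagged competitor protein; inactives centre near -12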
Sa growth inh: blocks Staphylococcus aureus growth | S. aureus RN4220 growth, OD600, 20 h, 42 °C; active compounds read low | hit rate 0.53% among 170,000 | relative growth, % (no concentration beside the values);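 active = growth at 42 °C up to 50% and 20 or more points under that at 30 °C, or under 10% at both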;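 also: 300 nL library stock went into each well; scaled to the means of positive and negative controls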
GIV-Gai inh: GIV-Galpha-i interaction inhibition | P08753 | Galpha-i3/FITC-GIV peptide fluorescence polarization, 90 min; active compounds read low; scaled: aluminum fluoride 0%, vehicle 100% | percent of control (FP), % (no concentration beside the values) | hit rate 0.42% among 210,000 | AID 1224905;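 active = replicate mean at 85% of control or lower, very high polarization wells dropped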;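 also: wells of about 15 µL received 100 nL stock; the first replicate is given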
Target sequence (P08753 whole entry, looked up): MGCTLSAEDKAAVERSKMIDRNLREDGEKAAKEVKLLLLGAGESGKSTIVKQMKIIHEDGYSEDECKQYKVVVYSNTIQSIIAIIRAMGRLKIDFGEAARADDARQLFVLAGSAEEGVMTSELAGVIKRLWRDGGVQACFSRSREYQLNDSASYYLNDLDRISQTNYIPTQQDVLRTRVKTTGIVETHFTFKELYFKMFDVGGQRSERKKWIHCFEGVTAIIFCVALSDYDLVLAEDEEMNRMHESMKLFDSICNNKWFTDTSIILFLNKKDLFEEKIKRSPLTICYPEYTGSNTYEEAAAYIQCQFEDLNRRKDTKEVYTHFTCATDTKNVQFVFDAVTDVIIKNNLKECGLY
Sa growth inh second temp: recorded beside Sa growth inh, whose call it bears; relative growth, %; measured here: growth at 30 °C;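 optical density after 20 h as mean of two plates; 100% = untreated growth and lower means inhibition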
Numbers without * were called inactive; / = no result given; & = joins results of further samples. This is a random part of the collection; any-hit rate near 0.83%.

Molecule	HCMV UL50-53 inh	Sa growth inh	Sa growth inh second temp	GIV-Gai inh
CN(C)c1ccc(/C=C/C=N/n2cnnc2)cc1	-92	99	93	/
CCOCCCn1c(=S)[nH]c2cc(C(=O)N3CCN(c4ccccc4)CC3)ccc2c1=O	-12	106	101	110
COc1ccc(-n2nc(C#N)c(N)c(C#N)c2=N)cc1	-97	103	83	/
COc1ccc(NC(=O)C2CCN(c3nc(-c4ccc(C)cc4)no3)CC2)cc1Cl	-13	/	/	98
O=C(Nc1sc2c(c1C(=O)Nc1cccc(Cl)c1)CCCC2)c1cccs1	23	93	97	97
CC(C)c1cccc(C(C)C)c1NC(=O)COC(=O)/C=C/c1ccco1	18	103	99	/
CCN1CSC(=S)N(CC)C1	-67	59	37	105
Cc1nnc(SCC(=O)Nc2ccccc2S(=O)(=O)N(C)C2CCCCC2)n1-c1ccccc1	-17	82	98	/
Cc1c(Cl)cccc1-n1c(CCC(=O)O)ccc1-c1cccs1	-21	74	51	106
COC(=O)Cn1c(CCS(=O)(=O)c2ccc(C)cc2)nc2ccccc21	-25	88	84	102

Structural class, the compounds so far with a thiophene ring, fused or not (two)
Molecule	HCMV UL50-53 inh	Sa growth inh	Sa growth inh second temp	GIV-Gai inh
O=C(Nc1sc2c(c1C(=O)Nc1cccc(Cl)c1)CCCC2)c1cccs1	23	93	97	97
Cc1c(Cl)cccc1-n1c(CCC(=O)O)ccc1-c1cccs1	-21	74	51	106

(continued)
Molecule	HCMV UL50-53 inh	Sa growth inh	Sa growth inh second temp	GIV-Gai inh
CC(CNC(=O)Cn1ncc2c3ccccc3n(Cc3cccc(Cl)c3)c2c1=O)c1ccccc1 (stereo not given)	-26	100	87	147
COC(=O)c1cn(C)c2ccc(S(=O)(=O)N(C)C3CCCCC3)cc2c1=O	/	86	73	99
O=C(Cc1ccccc1Br)N1CCC(c2nc(-c3ccccc3)no2)CC1	-6	/	/	104
COc1ccc(Nc2[nH]nc(NC(=O)CC3CC4CCC3C4)c2C#N)cc1 (stereo not given)	-26	59	95	/
CCOC(=O)c1ccc2c(c1)c(C)c(C)n2C	-5	91	86	115
COc1ccc(Cl)cc1N(CC(=O)NCc1ccccn1)S(=O)(=O)c1ccc(C)c([N+](=O)[O-])c1	-4	/	/	101
COc1ccc2nc(Nc3nc4c(c(=O)[nH]3)CCCC4)nc(C)c2c1	-23	/	/	101
CC(C)=C1C(=O)Nc2ccc(S(=O)(=O)N3CCc4ccccc43)cc21	0	105	100	114
Cc1cc(C)n2c(Nc3ccc(Cl)cc3)c(-c3ccsc3)nc2n1	19&3	90	87	106&104
COc1cc(NC(=O)c2nc3ccccc3nc2C)cc(OC)c1OC	-22	107	86	102

Molecule	HCMV UL50-53 inh	Sa growth inh	Sa growth inh second temp	GIV-Gai inh
Cc1ccccc1NC(=O)Nc1c(C)n(-c2ccccc2)c(=O)n1C	-10	97	102	98
Cc1cc(C)c(Cn2c3ccccc3c3cnn(CC(=O)NCc4cccs4)c(=O)c32)c(C)c1	-12	96	91	101
Cc1ccc(CSc2nc3ccc(NC(=O)COc4ccccc4F)cc3s2)cc1	-34	96	84	100
O=C(N1CCN2CCCC2C1)C(F)(F)C(F)(F)C(F)(F)C(F)(F)F (stereo not given)	-21	104	52	99
O=C(CCCN1C(=O)/C(=C\c2cccs2)SC1=S)Nc1ccc(O)cc1	/	96	84	95
Clc1ccc(CSCc2ccc(-c3csnn3)cc2)cc1	-50	103	89	109
Cc1cc(C)c(S(=O)(=O)N2CCN=C2N2CCN(c3ccccc3Cl)CC2)cc1C	-22	/	/	106
CCCCC(C(=O)N1CCCCC1)N1C(=O)c2ccccc2C1=O (stereo not given)	/	93	80	102
C/[N+]([O-])=C\C1C(=O)CC(C)(C)CC1=O	-8	/	/	99
Cn1c(=O)c2ccccc2n2c(CCC(=O)N3CCN(c4cccc(Cl)c4)CC3)nnc12	-8	103	85	102

Molecule	HCMV UL50-53 inh	Sa growth inh	Sa growth inh second temp	GIV-Gai inh
CCCCn1c(COC)nc2ccccc21	/	98	85	103
Cc1cccc(NC(=O)Nc2ccc(Br)cc2)n1	53	100	106	101
CCS(=O)(=O)c1ccc2oc(C)nc2c1	-21	96	98	/
COC(=O)Cc1cc(=O)n2[nH]cnc2n1	-5	94	91	96
Cc1ccc(-c2nn(CCC(=O)Nc3ccc(Cl)c(Cl)c3)c(=O)c3ccccc23)cc1	15	98	87	98
CSC1=C(C#N)C(c2ccc(Cl)cc2)C(C(=O)OC(C)(C)C)=C(C)N1 (stereo not given)	-25	/	/	103
FC(F)(F)c1cccnc1-n1cncn1	-2	102	72	98
N#CC(c1ccc2c(c1)OCO2)N(Cc1ccccc1)C(=O)c1sc2ccccc2c1Cl (stereo not given)	0	88	86	101
COc1ccccc1/C=N\NC(=O)c1ccccn1	-40	91	97	104
CCOC(=O)Cn1c(=O)n(CC2CCCO2)c2nc(-c3ccc(OC)cc3OC)nc(C(N)=O)c21 (stereo not given)	/	98	90	105

Molecule	HCMV UL50-53 inh	Sa growth inh	Sa growth inh second temp	GIV-Gai inh
Clc1ccc(-c2cc3c(N4CCN(c5ccccn5)CC4)nccn3n2)cc1	10	/	/	108
Cc1ccc2c(c1)C=C(C(=O)Nc1cccc(F)c1)C=CO2	-14	/	/	99
Cc1cc2c(cc1S(=O)(=O)N1CCCC(C(=O)N3CCc4ccccc4C3)C1)OC(C)C(=O)N2 (stereo not given)	0	/	/	104
O=C(Nc1nc2c(s1)COc1ccccc1-2)c1ccc2ncsc2c1	-26	100	79	104
CCN1C(=O)C(C)S/C1=N\S(=O)(=O)c1ccc(F)cc1 (stereo not given)	3	103	98	/
CCC1Oc2ccccc2C(=O)N(CC(=O)c2ccc(S(=O)(=O)N3CCOCC3)cc2)C1=O (stereo not given)	-26	/	/	108
COc1ccc2c(c1)c1c(c(=O)n(Cc3ccccc3)c(=O)n1Cc1cc(C)ccc1C)n2C	/	104	92	106
COc1cc2c(cc1OC)C1(NCC2)C(=O)Nc2ccccc21 (stereo not given)	-42	102	97	/
CCCOc1ccc(C(=O)N(Cc2ccc(Cl)cc2)Cc2ccco2)cc1	-8	86	76	100
CC(C)(C)c1ccc(-c2nc3nc(CN4CCCCC4)cc(=O)n3[nH]2)cc1	-13	/	/	104

Molecule	HCMV UL50-53 inh	Sa growth inh	Sa growth inh second temp	GIV-Gai inh
COCCOC(=O)C1=C(C)NC2=C(C(=O)CC(C)(C)C2)C1c1cc2c(cc1Br)OCO2 (stereo not given)	-25	/	/	105
CCOC(=O)/C(C#N)=C\c1ccc2c(c1)OCO2	-26	99	98	111
COCCn1c(SCC(=O)c2c[nH]c3ccccc23)nc2ccccc2c1=O	11	125	101	/
CC1=C(c2ccc(C)c(C)c2)S(=O)(=O)N(CC(=O)NCc2cccc(Br)c2)C1=O	-24	/	/	98
O=C(NCCCN1CCCC1=O)c1ccc2snnc2c1	-3	107	82	103
CCn1c(C)c(/C=C/c2nc3ccccc3c(=O)n2C)c2ccccc21	-5	/	/	107
CCOC(=O)Nc1ccc2c(c1)N(C(=O)CCN1CCOCC1)c1ccccc1CC2	-35	89	78	102
Cc1ccccc1CN1C(=O)C(O)(c2c[nH]c3ccccc23)c2cc(Cl)ccc21 (stereo not given)	-19	72	73	104
CN(C)S(=O)(=O)c1ccc(C(=O)Nc2ccc(-n3nncc3-c3ccccc3)cc2)cc1	/	129	96	106
COc1ccc(CNC(=O)CCNS(=O)(=O)c2cccc3nsnc23)cc1	-64	96	93	104

The list goes on, starting with the last 5 of the part before.
Molecule	HCMV UL50-53 inh	Sa growth inh	Sa growth inh second temp	GIV-Gai inh
CCn1c(C)c(/C=C/c2nc3ccccc3c(=O)n2C)c2ccccc21	-5	/	/	107
CCOC(=O)Nc1ccc2c(c1)N(C(=O)CCN1CCOCC1)c1ccccc1CC2	-35	89	78	102
Cc1ccccc1CN1C(=O)C(O)(c2c[nH]c3ccccc23)c2cc(Cl)ccc21 (stereo not given)	-19	72	73	104
CN(C)S(=O)(=O)c1ccc(C(=O)Nc2ccc(-n3nncc3-c3ccccc3)cc2)cc1	/	129	96	106
COc1ccc(CNC(=O)CCNS(=O)(=O)c2cccc3nsnc23)cc1	-64	96	93	104
Cc1ccccc1NC1CC(C)N(C(=O)c2cccc(F)c2)c2c(C)cccc21 (stereo not given)	-15	/	/	95
CCOc1ccc(-n2ccnc2SCC(=O)Nc2nc3ccc(C)cc3s2)cc1	/	109	85	100
Cc1ccc(-n2ncc3c(N4CCCCC4)ncnc32)cc1Cl	/	106	95	105
Fc1ccccc1Cn1cnc2ccccc21	-8	104	87	/
CCCCNC(=O)CSc1nc(-c2ccc(C(C)C)cc2)no1	-9	/	/	103
O=C(Cn1ccn2nc(-c3ccccc3)cc2c1=O)N1CCC(Cc2ccccc2)CC1	13	/	/	106
O=C(Cc1ccccc1)Nc1nnc(-c2ccco2)o1	-37	90	71	103
Cc1cc(C)cc(N2C(=O)CSC23C(=O)N(CC(=O)NCCc2ccccc2)c2ccccc23)c1 (stereo not given)	/	93	93	104
CCCNC(=O)c1cc(S(=O)(=O)N2CCc3ccccc32)cn1C	/	100	89	106
Brc1ccc(OCCn2cnc3ccccc32)cc1	-1	73	38	104

Molecule	HCMV UL50-53 inh	Sa growth inh	Sa growth inh second temp	GIV-Gai inh
CC(C)N1CC(COc2ccccc2)OC1=O (stereo not given)	-7	122	88	/
Cc1csc(NC(=O)CSc2nnc(CCNC(=O)c3ccc(Cl)c(Cl)c3)n2C)n1	-2	2	2	106
O=C(OCC1CCCO1)c1ccc2c(c1)N(Cc1ccccc1Cl)C(=O)c1ccccc1S2(=O)=O (stereo not given)	-13	124	107	110&104
Cc1cccc(NC(=O)CSc2nc(-c3cccs3)cc(C(F)(F)F)c2C#N)c1	-13	102	94	101
COc1ccc(CNC(=O)CN(C)Cc2ccccc2F)cc1OC	-25	79	90	/
O=C(Cn1cnc2c(nnn2Cc2ccc(Cl)cc2)c1=O)NCc1ccc2c(c1)OCO2	6	107	97	99
CCOc1ccc(CNC(=O)CSc2nnc(C)c3c(C)n(-c4ccc(Cl)cc4)nc23)cc1	/	118	89	105
CC(C)CC(NC(=O)c1ccco1)C(=O)O (stereo not given)	-2	117	85	99
Cc1ccccc1Cn1nc(-c2ccco2)ccc1=O	-41	108	80	103
C#CCn1c(=NC(=O)CSCC(=O)N2CCCC2)sc2ccccc21	-17	98	81	99

Molecule	HCMV UL50-53 inh	Sa growth inh	Sa growth inh second temp	GIV-Gai inh
CCOc1ccc(-c2noc(CCCn3c(=O)[nH]c4cc5c(cc4c3=O)OCO5)n2)cc1OC	2	/	/	106
O=C(CSC1CC(=O)N(c2ccccc2)C1=O)Nc1ccc(F)cc1 (stereo not given)	5	75	64	103
CCN(CC)S(=O)(=O)c1ccc(NC(=O)CSc2nncn2-c2ccccc2)cc1	-20	94	94	/
COc1ccc(C(=O)COC(=O)CCn2c(C)csc2=O)c(OC)c1	-1	93	90	/
COc1cccc(NC2=NC3(CCCC3)N=C(N)N2)c1	/	107	77	100
Cc1cc(C)n(CC(=O)NC2CCCC2)c(=O)c1S(=O)(=O)c1ccc(Br)cc1	-22	/	/	104
COC(=O)CC1C=CS(=O)(=O)C1 (stereo not given)	0	103	72	111
CC(=O)N1CCCSc2ccc(S(=O)(=O)NCCC(C)C)cc21	-14	/	/	100
CN(C(=O)Nc1noc2c1COc1ccccc1-2)C1CCCCC1	-24	89	81	102
COc1ccc(NC(=O)C2=Cc3cccc(OC)c3OC2)cc1	-66	96	91	103

Molecule	HCMV UL50-53 inh	Sa growth inh	Sa growth inh second temp	GIV-Gai inh
Cc1ccc(-c2nc3cnccn3c2NC2CCCCC2)o1	/	105	58	88
CCC(C)Nc1ncnc2c1oc1ccccc12 (stereo not given)	-12	95	77	/
COc1ccc(C)cc1NC(=O)C(=O)NCCc1csc(-c2ccc(C)cc2)n1	/	119	87	97
CC(=O)Nc1ccc(N2CCOCC2)c(Cl)c1	-28	102	84	99
COc1ccc(CCCc2nnc(SCC(=O)NN)o2)cc1	/	102	75	100
CCc1ccccc1N1C(=O)c2cc3ccsc3n2CC1(C)C(=O)NCc1ccccc1OC (stereo not given)	-38	/	/	103
O=C(N/C(=C\c1ccco1)C(=O)N1CCCC1)c1ccccc1	-20	102	90	100
COCCN1C(=O)C(=O)/C(=C(/O)c2ccccc2)C1c1ccccc1 (stereo not given)	-22	87	91	106
COC(=O)c1ccccc1NC(=O)c1cc2nc(-c3ccccc3)cc(C(F)(F)F)n2n1	4	/	/	103
COc1ccc(CN2CC(C(=O)NC3CCCCC3)CC2=O)cc1 (stereo not given)	6	97	77	101

Molecule	HCMV UL50-53 inh	Sa growth inh	Sa growth inh second temp	GIV-Gai inh
C=CCNC(=O)c1ccc(-c2ccccc2)cc1	-29	89	90	/
COc1ccccc1CNC(=O)CCNS(=O)(=O)c1cccc2nsnc12	-96	102	90	104
CC(=O)Nc1ccc2c(c1)C1C=CCC1C(C(=O)O)N2 (stereo not given)	-58	77	88	188
CC(C)(C)C(=O)NCc1cn2ccsc2n1	/	119	81	102
COc1ccc(C2C3=C(CC(C)(C)CC3=O)Nc3onc(C)c32)cc1O (stereo not given)	-15	/	/	102
COC(=O)c1ccc(S(=O)(=O)N2CCC(O)CC2)n1C	-6	93	91	101
CCCOc1ccc(C(=O)CCN(C)C)cc1	-9	42	48	100
C=CCn1c(SCc2cn3ccccc3n2)nnc1-c1cccc(S(=O)(=O)N(CC)CC)c1	-32	94	82	/
